PrP UTR inh: suppresses PrP 5' UTR mRNA reporter expression. cell-based PrP 5' UTR mRNA reporter, plate reader. inhibition, % (no concentration beside the values). actives 0.35% (n = 340,000). AID 488862;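 active = every replicate at 50% or more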;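 also: 0 = median of the neutral control wells; tested in H4 reporter cells; numbers are from one replicate; inactives centre near -14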
Bead autofluor: compound fluorescence in toxin protease inhibitor counterscreen. compound autofluorescence counterscreen, microsphere flow cytometry; hits give high values. fluorescence intensity (test concentration not listed). actives 3.1% (n = 360,000);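 active = at least 3 SD above the mean of all compounds, about 16000 in these data; inconclusive = too few beads counted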;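 also: 100 nL of 1 mM stock went into each well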
BJeLR lethal: kills HRASV12-expressing BJeLR cells; BJeLR (HRASV12) viability, CellTiter-Glo ATP luminescence, 48 h; reference of the scale not given here; inhibition, % (concentration not given with the values); actives 0.17% (n = 300,000); AID 1554;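 active = replicate mean above 50%; inconclusive = above 50% but judged a plate artefact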;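 also: 50 nL library stock added to about 25 µL; numbers are from one replicate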
Mtb hypoxia inh: reduces hypoxia-regulated biosensor signal in M. tuberculosis. M. tuberculosis hypoxia-regulated fluorescent reporter, fluorescence. fluorescence inhibition, % (test concentration not listed). AID 1159583. actives 0.1% (n = 300,000);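 active = 35 to 45% if threefold the growth effect, above 45% if 1.5-fold the growth effect; inactive = the rest, general growth blockers included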;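 also: wells of about 50 µL received 100 nL stock; 0% = vehicle wells and 100% = reference inhibitor wells; whole bacteria with a GFP reporter of the hypoxia response; strong numbers were not always called active; many hits fall short of the cut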
RN4220 kill: S. aureus RN4220 growth inhibition | actives 0.33% (n = 330,000) | OD600, 16 h | inhibition, % (concentration not given with the values) | AID 1259311;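 active = z-score of -3 or lower and OD600 up to 0.18 on both plates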;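 also: plate controls were untreated cells for no effect and reference antibiotic for full effect; stock transfer was 100 nL into about 80 µL; one replicate is shown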
Sa ugtP lethal: kills S. aureus RN4220 lacking UgtP. S. aureus RN4220 ugtP deletion, OD600 growth, 16 h; some inactives read as strong as hits. growth inhibition, % (test concentration not listed). actives 0.54% (n = 330,000);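 active = z-score under -3 and OD600 up to 0.15 on both plates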;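 also: plate controls were untreated wells for no effect and antibiotic for full effect; wells of about 80 µL received 100 nL stock; the first replicate is given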
Mtb hypoxia inh growth: also measured in Mtb hypoxia inh; calls as there; growth inhibition, %; measured here: M. tuberculosis growth (absorbance);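 0% = vehicle and 100% = reference antibiotic; read after six days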
* marks the source's active call; other numbers are inactive results; ? = inconclusive; · = not tested or not shown. Rows are unselected (roughly 4% active in at least one column).

SMILES	PrP UTR inh	BJeLR lethal	RN4220 kill	Mtb hypoxia inh growth	Mtb hypoxia inh	Bead autofluor	Sa ugtP lethal
COc1cc2c(cc1OC)C(C(=O)Nc1ccc3c(c1)OCCO3)C1c3ccccc3CCN1C2=O (configuration not stated)	-18	1	1.7	2	-2	4769	-3
O=C(Oc1ccc2c(c1)OCO2)c1ccncc1	-14	-7	7.5	3	10	10322	-4
O=C(Nc1ccc2c(c1)CCCN2C(=O)c1ccco1)c1cc([N+](=O)[O-])ccc1Cl	3	19	6.0	0	-2	·	15
O=C(Nc1ccccc1N1CCOCC1)c1cccnc1Cl	-31	-10	1.4	3	-3	4149	2
CN(C)c1ccc([C@@H]2[C@@H]([N+](=O)[O-])[C@H]3C=Cc4ccccc4N3[C@H]2C(=O)c2ccc(Cl)cc2)cc1	-20	·	1.1	4	6	1661	7
O=C(c1cccs1)N1CCC(c2nc3c(nnn3Cc3c(Cl)cccc3Cl)c(=O)[nH]2)CC1	-19	3	0.7	3	6	4077	5
CCC(=O)OC1(c2ccccc2)CCN(C)CC1C (configuration not stated)	-14	3	0.7	-9	7	4465	2
O=C(Oc1ccc2c(c1)CCC2)N1CCOCC1	-67	-3	2.5	15	17	3728	3
NS(=O)(=O)c1ccc(CCNC(=O)c2cc(-c3ccccn3)nc3ccc(Br)cc23)cc1	-36	-3	5.1	7	13	4501	4
CCC1=C(c2ccc(OC)cc2)CCC(C(=O)O)C1C (configuration not stated)	-21	·	-4.0	8	-3	4026	17
CN1CCN(c2c([N+](=O)[O-])cnc3ccccc23)CC1	-9	6	2.6	9	-3	4134	8
O=C(CN1CCOCC1)NN=Cc1ccccc1	·	·	-7.2	-8	-9	·	7
CC(=O)NC(CCS(C)(=O)=O)C(=O)Nc1c(C)cccc1C (configuration not stated)	-7	2	-11	8	5	6336	-7
CC(C(=O)NC(=O)NC1CCCCC1)N1CCN(c2ccc(O)cc2)CC1 (configuration not stated)	1	·	6.1	-5	-2	2812	8
COc1cc(OC)cc(C(=O)NNC(=O)CNC(=O)c2cccs2)c1	-2	·	2.8	0	0	·	1
O=C(CN1CC(=O)Oc2ccccc21)OCC(=O)c1cccc(Br)c1	-14	-19	·	·	·	3049	·
CCOc1ccc(Cc2nn[nH]n2)cc1	-24	-2	5.7	·	·	3750	-3
Cc1ccc(Nc2nnc(SCC(=O)Nc3cc(C(=O)O)ccc3C)s2)c(C)c1	-21	-7	2.8	4	-1	5073	7
Cc1cccc(C(=O)N[C@H](C(=O)Nc2nccs2)C(C)C)c1	-11	-5	2.8	5	9	2215	6
Cc1ccc(OCc2cc(C(=O)N(C)CC3CCOCC3)no2)cc1C	-60	0	6.1	11	6	6236	-7
CCOc1cccc2sc(N3CCN(C(=O)c4ccc5ncsc5c4)CC3)nc12	-17	2	-2.1	-1	-5	4244	-12
Cc1ccc(C(=O)CN2C(=O)NC3(CCc4ccccc43)C2=O)c(C)c1 (configuration not stated)	-32	-12	4.0	-3	10	?	5
CCN(CC)c1ccc(NC(=O)C2CC(=O)N(Cc3ccccc3)C2)cc1 (configuration not stated)	-19	1	4.2	1	14	4400	4
Cc1csc2ncnc(N3CCN(S(=O)(=O)c4cccc(C(F)(F)F)c4)CC3)c12	-9	8	4.2	7	12	5638	-6
C=C1CCN(C(Cc2ccccc2)C(=O)O)S(=O)(=O)c2ccccc21 (configuration not stated)	·	·	10	6	9	·	-17
Cc1ccccc1OCCN1C(=O)NC2(CCc3ccccc32)C1=O (configuration not stated)	-20	6	-0.1	-5	-4	20031*	-2
COc1ccc(CCNC(=O)Cn2c(=O)cnc3ccccc32)cc1	-11	1	2.6	7	7	2800	5
CCOC(=O)c1c(CSc2nc(C)cc(C)c2C#N)n(C)c2cc(Br)c(OC(C)=O)cc12	-13	-4	-4.8	-2	-3	2481	-2
CCOC(=O)c1c(NC(=O)CN2C(=O)NC3(CCC(C)CC3)C2=O)sc(C)c1-c1ccc(C)cc1 (configuration not stated)	-16	2	·	·	·	10352	·
CN(C)S(=O)(=O)c1ccc(NC(=O)c2ccc([N+](=O)[O-])cc2)cc1	-7	4	1.7	12	0	6167	7
Fc1ccc(C2CC(c3ccccc3)Nc3ncnn32)cc1 (configuration not stated)	-23	-3	8.4	·	·	4816	6
CCC1(c2ccccc2)NC(=O)N(CC(=O)N(C)CC(=O)Nc2cccc(OC)c2)C1=O (configuration not stated)	-12	-12	0.0	5	2	?	-3

Compound profiles (already shown).
Shown for Cc1ccccc1OCCN1C(=O)NC2(CCc3ccccc32)C1=O (configuration not stated) = PrP UTR inh = -20; BJeLR lethal = 6; RN4220 kill = -0.1; Mtb hypoxia inh growth = -5; Mtb hypoxia inh = -4; Bead autofluor = 20031*; Sa ugtP lethal = -2
Shown for CN(C)S(=O)(=O)c1ccc(NC(=O)c2ccc([N+](=O)[O-])cc2)cc1 = PrP UTR inh = -7; BJeLR lethal = 4; RN4220 kill = 1.7; Mtb hypoxia inh growth = 12; Mtb hypoxia inh = 0; Bead autofluor = 6167; Sa ugtP lethal = 7

Carrying on:
SMILES	PrP UTR inh	BJeLR lethal	RN4220 kill	Mtb hypoxia inh growth	Mtb hypoxia inh	Bead autofluor	Sa ugtP lethal
C/C(=N\NC(=O)C(O)c1ccccc1)c1ccc(Br)s1 (configuration not stated)	-25	3	·	·	·	2948	·
O=C(Nc1ccc(-n2cnnn2)cc1)c1cccc(S(=O)(=O)N2CCCC2)c1	-22	·	0.9	-11	5	3017	6
Cc1cc(C(=O)Nc2c(F)cc(F)cc2Br)n(-c2ccccc2)n1	-15	-3	1.3	11	2	3486	17
CCC(C(=O)OCC(=O)NC(=O)c1ccccc1)c1ccccc1 (configuration not stated)	-6	4	1.4	12	2	?	5
Cc1ccc(C(=O)COC(=O)c2ccco2)cc1C	-50	5	5.7	5	3	6671	6
CCC(C)Sc1ccc([C@H]2N[C@@](Cc3ccccc3)(C(=O)OC)[C@H]3C(=O)N(C)C(=O)[C@@H]23)cc1 (some centres not stated)	-26	-4	·	·	·	3469	·
CCCCSCCCNC(=O)c1ccc(CS(=O)(=O)c2ccccc2OC)o1	-11	2	-1.4	8	1	3353	16
Cc1cc(NC(=O)c2ccc([N+](=O)[O-])cc2)n(C)n1	-32	4	2.0	2	10	5603	14

Some of these compounds in order of SMILES length, descending.
SMILES	PrP UTR inh	BJeLR lethal	RN4220 kill	Mtb hypoxia inh growth	Mtb hypoxia inh	Bead autofluor	Sa ugtP lethal
CN(C)c1ccc([C@@H]2[C@@H]([N+](=O)[O-])[C@H]3C=Cc4ccccc4N3[C@H]2C(=O)c2ccc(Cl)cc2)cc1	-20	·	1.1	4	6	1661	7
CCC(C)Sc1ccc([C@H]2N[C@@](Cc3ccccc3)(C(=O)OC)[C@H]3C(=O)N(C)C(=O)[C@@H]23)cc1 (some centres not stated)	-26	-4	·	·	·	3469	·
CCOC(=O)c1c(NC(=O)CN2C(=O)NC3(CCC(C)CC3)C2=O)sc(C)c1-c1ccc(C)cc1 (configuration not stated)	-16	2	·	·	·	10352	·
NS(=O)(=O)c1ccc(CCNC(=O)c2cc(-c3ccccn3)nc3ccc(Br)cc23)cc1	-36	-3	5.1	7	13	4501	4
CN(C)S(=O)(=O)c1ccc(NC(=O)c2ccc([N+](=O)[O-])cc2)cc1	-7	4	1.7	12	0	6167	7
O=C(Nc1ccc(-n2cnnn2)cc1)c1cccc(S(=O)(=O)N2CCCC2)c1	-22	·	0.9	-11	5	3017	6
Cc1ccc(C(=O)CN2C(=O)NC3(CCc4ccccc43)C2=O)c(C)c1 (configuration not stated)	-32	-12	4.0	-3	10	?	5
CCOc1cccc2sc(N3CCN(C(=O)c4ccc5ncsc5c4)CC3)nc12	-17	2	-2.1	-1	-5	4244	-12
C=C1CCN(C(Cc2ccccc2)C(=O)O)S(=O)(=O)c2ccccc21 (configuration not stated)	·	·	10	6	9	·	-17
Cc1cc(C(=O)Nc2c(F)cc(F)cc2Br)n(-c2ccccc2)n1	-15	-3	1.3	11	2	3486	17
COc1cc(OC)cc(C(=O)NNC(=O)CNC(=O)c2cccs2)c1	-2	·	2.8	0	0	·	1
Cc1ccc(OCc2cc(C(=O)N(C)CC3CCOCC3)no2)cc1C	-60	0	6.1	11	6	6236	-7
CCC(C(=O)OCC(=O)NC(=O)c1ccccc1)c1ccccc1 (configuration not stated)	-6	4	1.4	12	2	?	5
C/C(=N\NC(=O)C(O)c1ccccc1)c1ccc(Br)s1 (configuration not stated)	-25	3	·	·	·	2948	·
CCC1=C(c2ccc(OC)cc2)CCC(C(=O)O)C1C (configuration not stated)	-21	·	-4.0	8	-3	4026	17
CCC(=O)OC1(c2ccccc2)CCN(C)CC1C (configuration not stated)	-14	3	0.7	-9	7	4465	2
O=C(Oc1ccc2c(c1)CCC2)N1CCOCC1	-67	-3	2.5	15	17	3728	3

(more compounds)
SMILES	PrP UTR inh	BJeLR lethal	RN4220 kill	Mtb hypoxia inh growth	Mtb hypoxia inh	Bead autofluor	Sa ugtP lethal
COC(=O)c1cn(Cc2cccnc2)c(=O)c2ccccc12	-23	7	5.2	8	7	4794	0
Cc1cc(C)cc(C(=O)Nc2nc3ccccc3[nH]2)c1	-59	-7	3.5	6	3	6258	-11
CC(=O)OCC#CCSc1nc2ccccc2n1C	-21	1	5.4	3	4	10341	4
Cc1onc(-c2ccccc2Cl)c1C(=O)OCc1nnc(-c2ccccc2)o1	7	-3	3.9	1	-6	?	-3
O=C(CSC1CC(=O)N(c2ccc(C(=O)O)cc2)C1=O)Nc1ccc(Cl)cc1 (configuration not stated)	-35	-2	-2.2	9	3	3223	2
CCC(=O)Nc1nc2c(c(=O)[nH]1)CCCC2	-6	-3	5.7	4	3	4784	1
Cc1cccc(NC(=O)c2ccc3c(c2)C(=O)N(c2ccccc2C)C3=O)n1	-6	-2	2.0	7	3	?	1
CC(C(=O)N1CCOCCOCCOCCOCCOCC1)N1C(=O)c2ccccc2C1=O (configuration not stated)	-10	6	5.6	4	1	3734	7
Cc1cc2c(cc1S(=O)(=O)N(C)C1CCCCC1)OCC(=O)N2	-9	-7	20	12	2	6697	3
COc1cccc(CNC(=O)CCC2CCCN(Cc3cc4ccccc4o3)C2)c1 (configuration not stated)	-13	5	-3.4	-3	-1	3874	1
COCCC(=O)N1CCC(Oc2ccc(C(=O)N3CCCCC3CCO)cc2)CC1 (configuration not stated)	-17	-2	2.7	4	7	5848	2
Cc1ccc(OCC(=O)Oc2ccc(C(C)C)cc2)cc1	-22	-10	1.4	-3	6	3247	9
CC1CCN(S(=O)(=O)c2ccc3nc(-c4ccccn4)cc(C(=O)NCCN(C)Cc4ccccc4)c3c2)CC1	5	0	-0.7	0	4	4610	3
O=C(CSc1nnc(NC(=O)c2ccccc2F)s1)NCc1ccc(F)cc1	-33	13	-7.6	8	5	5316	2
Cc1ccc(NC(=S)N(CCCN2CCCC2)Cc2cccn2Cc2ccc(Cl)cc2)cc1	-11	16	-1.8	13	-4	3783	7
Cc1ccc(S(=O)(=O)N2CCC(=O)N(C(COCc3cccc(C)c3)C(C)C)CC2)cc1 (configuration not stated)	-24	-11	-3.8	6	0	4329	2
CC1CCc2sc(C(=O)NCC(C)(C)N3CCOCC3)cc2C1 (configuration not stated)	-11	-2	1.7	-2	-3	·	7
O=C(Cc1ccc(S(=O)(=O)N2CCOCC2)s1)NC1CCCCC1	-17	·	0.0	4	5	6463	2
CC1(NC(=O)c2ccccc2)CCN(CCCc2ccccc2)C1=O (configuration not stated)	-15	·	8.1	0	11	3422	2
O=C(NCc1nnc(SC/C=C/c2ccccc2)o1)c1ccco1	-6	6	-4.4	·	·	3433	8
CNC(=O)ON(C(=O)NC)C1N(C)C(=S)SC1(C)C (configuration not stated)	-41	3	-0.6	6	-2	10829	-4
COc1ccc(NC(=O)CSc2nncn2C)cc1OC	-19	-4	5.1	6	11	2737	5
Cc1onc(-c2ccccc2)c1C(=O)Nc1ccc2c(C)cc(=O)oc2c1	0	-8	2.2	·	·	2962	-1
O=C(COc1ccccc1)N=C1SC2CS(=O)(=O)CC2N1c1cccc(F)c1 (configuration not stated)	2	12	-0.2	8	-5	6086	1
CCCCCn1c2nc3ccccc3nc2c2c(=O)n(CC(C)C)cnc21	-6	23	-0.6	·	·	3175	-3
CCOC(=O)Cn1cc(C(=O)C(C)(C)C)c2ccccc21	11	·	5.9	15	17	4405	16
Cc1cc(N2C(=O)C(O)=C(C(=O)c3ccco3)C2c2ccc(Cl)cc2)no1 (configuration not stated)	-14	2	87*	0	-9	5767	73

Screens (PubChem BioAssay)
